High-throughput results (PubChem BioAssay)
PrP UTR inh – suppresses PrP 5' UTR mRNA reporter expression | cell-based PrP 5' UTR mRNA reporter, plate reader | inhibition, % (no concentration beside the values) | 340,000 compounds, 0.35% hits;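 active = every replicate at 50% or more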;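 also: 0 = median of the neutral control wells; tested in H4 reporter cells; numbers are from one replicate; inactives centre near -14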
Autofluor counter – flagged as autofluorescent in microsphere protease counterscreen. compound autofluorescence counterscreen, microsphere flow cytometry; active compounds read high. 360,000 compounds, 3.1% hits. fluorescence intensity (concentration not given with the values);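 active = at least 3 SD above the mean of all compounds, about 16000 in these data; inconclusive = too few beads counted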;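 also: 100 nL of 1 mM stock went into each well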
Sa ugtP lethal – growth inhibition of S. aureus ugtP deletion strain; 330,000 compounds, 0.54% hits; AID 1259309; S. aureus RN4220 ugtP deletion, OD600 growth, 16 h; some inactives read as strong as hits; growth inhibition, % (test concentration not listed);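 active = z-score under -3 and OD600 up to 0.15 on both plates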;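 also: plate controls were untreated wells for no effect and antibiotic for full effect; wells of about 80 µL received 100 nL stock; the first replicate is given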
RN4220 kill – kills Staphylococcus aureus RN4220. inhibition, % (test concentration not listed). S. aureus RN4220 growth, OD600, 16 h. 330,000 compounds, 0.33% hits;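 active = z-score of -3 or lower and OD600 up to 0.18 on both plates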;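 also: plate controls were untreated cells for no effect and reference antibiotic for full effect; stock transfer was 100 nL into about 80 µL; one replicate is shown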
Mtb hypoxia inh – reduces hypoxia-regulated biosensor signal in M. tuberculosis; M. tuberculosis hypoxia-regulated fluorescent reporter, fluorescence; fluorescence inhibition, % (concentration not given with the values); 300,000 compounds, 0.1% hits;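 active = 35 to 45% if threefold the growth effect, above 45% if 1.5-fold the growth effect; inactive = the rest, general growth blockers included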;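 also: wells of about 50 µL received 100 nL stock; 0% = vehicle wells and 100% = reference inhibitor wells; whole bacteria with a GFP reporter of the hypoxia response; strong numbers were not always called active; many hits fall short of the cut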
BJeLR lethal – kills HRASV12-expressing BJeLR cells. BJeLR (HRASV12) viability, CellTiter-Glo ATP luminescence, 48 h; reference of the scale not given here. inhibition, % (test concentration not listed). 300,000 compounds, 0.17% hits;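 active = replicate mean above 50%; inconclusive = above 50% but judged a plate artefact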;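 also: 50 nL library stock added to about 25 µL; numbers are from one replicate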
Mtb hypoxia inh growth – also measured in Mtb hypoxia inh; calls as there; growth inhibition, %; measured here: M. tuberculosis growth (absorbance);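 0% = vehicle and 100% = reference antibiotic; read after six days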
* marks the source's active call; other numbers are inactive results; ? = inconclusive; . = not tested or not shown.

SMILES	PrP UTR inh	Autofluor counter	Sa ugtP lethal	RN4220 kill	Mtb hypoxia inh	Mtb hypoxia inh growth	BJeLR lethal
CC12CCC(C(=O)NCc3ccccc3Cl)(C(Br)C1=O)C2(C)C (stereo not drawn)	-4	1946	-6	0.9	-4	5	-5
COCCOC(=O)C1=C(C)Nc2ncnn2C1c1ccccc1 (stereo not drawn)	-23	4425	-10	-4.9	-10	-10	0
CS(=O)(=O)c1ccc2nc(NC(=O)c3cc([N+](=O)[O-])cc([N+](=O)[O-])c3)sc2c1	-16	9487	3	2.1	8	-1	-6
O=c1c2ccccc2nc(SCc2cccc(F)c2)n1C1CCCC1	-12	2183	51	-9.0	-2	-3	-2
COc1ccc(N2CCN(CC(=O)Nc3nc4c(s3)CC(C)CC4)CC2)cc1 (stereo not drawn)	-10	3400	2	7.3	5	13	12
CCOc1ccc(NC(=O)NCCN2CCN(c3ccccc3F)CC2)cc1	-6	3504	0	0.2	-5	7	-8
CC1CCN(Cc2ccc(-c3nn[nH]n3)cc2)CC1	-5	3630	-6	-12	1	9	0
CCCn1c(Cc2ccccc2)nnc1SC(C)C(=O)NC1CC1 (stereo not drawn)	-9	8891	3	3.3	12	3	.
CCOc1cc(/C=N/N=C2/NC(=O)C(CC(=O)O)S2)ccc1OS(=O)(=O)c1ccc(C)cc1 (stereo not drawn)	-12	4102	.	.	.	.	1
O=C1OC(Nc2nc3ccccc3s2)c2ccccc21 (stereo not drawn)	-26	2936	-2	31	0	5	-3
Cc1cc2oc(=O)cc(CN3CCOCC3)c2cc1C	-21	10906	-2	7.0	4	2	-23
COC(=O)c1sc(NC(=O)c2cc(C)on2)nc1C	7	5398	-6	-4.2	4	4	5
Cc1ccc(C(=O)NCCNc2ccc(Cl)cc2[N+](=O)[O-])o1	0	22948*	-1	1.5	4	4	2
O=C(Nc1ccc(C(=O)O)cc1)/C(=C\c1ccco1)NC(=O)c1ccc(Br)o1	-27	3794	6	4.1	4	8	-7
Cn1c(NC(=O)c2ccc(Br)o2)cc(=O)n(C)c1=O	-10	4587	0	1.5	.	.	6
COc1ccc(/C=N/NC(=O)c2cc[n+]([O-])cc2)cc1O	-7	3969	.	.	.	.	-1
CCOc1ccc(-c2nnc(NC(=O)Cc3cc(OC)c(OC)c(OC)c3)o2)cc1	-78	3960	-3	-0.8	-1	-1	3
Cc1ccc(S(=O)(=O)N2CCN(S(=O)(=O)c3cccs3)CC2)cc1	-20	5305	1	0.6	0	3	0
COc1nc(NCCc2ccc(OC)c(OC)c2)nc(NC(C)(C)CO)n1	-25	8849	-16	-7.8	-15	7	13
COC(=O)C1=C(C)N(CC2CCCO2)C(=O)/C1=C\c1ccc(O)cc1 (stereo not drawn)	-7	2610	6	1.4	.	.	-10
Clc1ccc(C(Cn2ccnc2)OCc2c(Cl)cccc2Cl)c(Cl)c1 (stereo not drawn)	-16	5072	94*	72	24	28	.
CCn1c(=NC(=O)CCS(=O)(=O)c2ccccc2)sc2cccc(OC)c21	-10	7061	0	3.3	6	-4	-2
Cc1nc2ccccc2c2nc(N)nn12	-7	2862	-5	-14	14	5	1
CCN(C[C@H]1N[C@@](Cc2ccccc2)(C(=O)OC)[C@H]2C(=O)N(Cc3ccccc3)C(=O)[C@@H]12)C(=O)c1ccc(F)cc1	-11	2776	-7	0.5	-8	-6	.
C#CC[N+]1(CC#Cc2ccccc2)CCCC1	-18	3563	-3	4.4	3	5	-4
Cc1ccc2nc3c(cc(C(N)=S)c(=N)n3CCCOC(C)C)c(=O)n2c1	-17	13411	1	1.9	4	-2	-14
Cn1c(=O)c2c(ncn2CC(=O)NC(C)(C)C)n(C)c1=O	-22	10819	6	4.2	11	6	-8
CC(C)(C)OC(=O)N1CCN(CCNC(=O)c2ccccc2)CC1	-21	3702	7	2.8	-10	-9	-2
CCN(CC)Cc1c(C(=O)NN=Cc2ccco2)nnn1-c1nonc1N	.	.	-1	0.0	8	-1	.
CCOc1ccc2[nH]c(=O)c(CN(CCc3ccccc3)C(=O)c3cnccn3)cc2c1	-14	3077	-6	0.5	-6	8	-3
COC(=O)c1c(C(=O)OC)c(-c2ccccc2)n2c1CS(=O)C2 (stereo not drawn)	-4	2521	0	3.2	1	-1	-5
CCOc1ccccc1/C=N/N1CCN(Cc2ccccc2)CC1	-8	3343	.	.	.	.	3
OC1(c2ccccc2F)CCN(Cc2nnnn2Cc2ccc(F)cc2)CC1	-29	3877	10	5.3	-1	3	6
CCCCOn1c(C)c(C(=O)OCC)c2c3nonc3ccc21	0	10229	-22	8.8	1	-4	9
Cc1cccc(NS(=O)(=O)c2cccc(C(=O)N3CCC3)c2)c1	-7	3721	3	8.1	7	9	.
COc1cc(C(=O)Oc2cc(C)[nH]c(=O)c2[N+](=O)[O-])cc(OC)c1OC	-22	6069	-5	-4.5	1	-3	7
Cc1ccc(CCC(=O)Nc2ncc(Cc3cccc(Cl)c3Cl)s2)o1	53*	2226	0	1.8	2	-2	50
CCNc1nc(NCC)nc(OCCOC(=O)COc2ccc(Cl)cc2Cl)n1	-11	?	-7	4.7	-2	0	2
O=C1NC(=S)SC1=Cc1ccccc1Cl	-11	3162	100*	98*	11	7	.
O=C(/C=C/c1ccccc1Cl)NCCCn1ccnc1	3	3372	12	-1.4	6	5	-12
CCOc1[nH]n(-c2ccccc2)c(=O)c1C=Nc1ccc(F)cc1F	-15	2161	-2	3.1	3	-1	-2
CCc1ccc(Nc2n[n+](-c3ccccc3)c(-c3ccc(SC)cc3)s2)cc1	-16	3952	-14	0.1	4	16	5
CC(C)(C)c1ccc(/C=C2\CCn3c2nc2cc(C(=O)O)ccc2c3=O)cc1	-18	2948	11	7.7	19	6	-2
COc1ccc(OC)c(N)c1	-7	2798	-15	-3.8	-2	2	-1
Cc1ccc(-c2nnc(N3CCCCCC3)c3ccccc23)cc1	6	3149	-21	-1.1	11	6	7
CC(C)(C)[C@@H]1C=C(C(=O)NCc2ccccc2)O[C@H](OCc2ccc(CO)cc2)C1	-12	3024	.	.	.	.	12
Cc1ccc(C(=O)NCCc2nc3ccccc3[nH]2)cc1[N+](=O)[O-]	-16	2465	-3	2.7	4	5	-7
COc1ccccc1N1CCN(S(=O)(=O)CCNC(=O)CCCc2ccccc2)CC1	-23	4106	4	-2.6	-1	-5	4
CCOc1ccccc1C(=O)OCC(=O)NCC1CCCO1 (stereo not drawn)	-16	2797	5	3.4	4	-3	.
CC(=O)c1cc(-c2ccccc2)n(CCC(=O)NC2CCC(C)CC2)c1C (stereo not drawn)	-6	2551	13	1.8	11	8	6

More results.
SMILES	PrP UTR inh	Autofluor counter	Sa ugtP lethal	RN4220 kill	Mtb hypoxia inh	Mtb hypoxia inh growth	BJeLR lethal
CN(c1cccc(Cl)c1)S(=O)(=O)c1cccc(C(=O)NC2=NCCS2)c1	-31	4843	2	7.6	4	1	1
CC(NC(=O)c1cc(S(=O)(=O)N(C)C)ccc1N1CCCC1)C1CC2CCC1C2 (stereo not drawn)	-18	4263	3	3.0	5	0	-7
NC(=O)NN=Cc1ccccc1OC(=O)c1cc2ccccc2oc1=O	.	.	3	2.3	3	-7	.
COc1cccc(CN(CC(=O)NC2CCCC2)C(=O)CCC(=O)Nc2cc(C)on2)c1	-31	3046	12	11	4	3	8
CC(=O)Nc1ccc(C(=O)OCc2ccc(F)cc2)cc1	-4	3477	12	6.5	7	1	9
CN(C)C(=O)C12CCC(C)(c3nc4ccccc4nc31)C2(C)C (stereo not drawn)	-11	15976	11	5.9	5	0	2
CCCNS(=O)(=O)c1ccc(CCC(=O)Nc2cc(Cl)ccc2Oc2ccccc2)cc1	3	3009	-13	-2.4	14	5	2
CCOc1cc(N2CCOCC2)c(OCC)cc1NC(=O)C1CCCC1	-9	4548	8	3.9	0	10	8
CCOc1cc(C)c(C(C)C)cc1S(=O)(=O)n1cnc(C)c1	-35	4566	5	-2.8	-2	-2	-10
CCOc1ccc(CN2CCN(Cc3nc(C(C)C)cs3)CC2CCO)cc1 (stereo not drawn)	.	.	6	4.2	9	7	-2
O=C1CSC(c2ccncc2)N1Cc1ccco1 (stereo not drawn)	-17	11880	-6	6.7	3	4	7
CC(=O)c1sc(NC(=O)Cc2c(F)cccc2Cl)nc1C	-17	3477	4	20	-2	-6	-5
COc1ccc(CCNC(=O)COc2nsnc2N2CCOCC2)cc1OC	-26	5737	-10	8.8	9	4	5
O=c1cc(-c2ccccc2)c2c([nH]1)CCCC2	9	19679*	6	1.6	6	13	5
Cc1cccc(C)c1NC(=O)CN(C1CCCCC1)S(C)(=O)=O	0	3023	2	1.1	8	-8	8
NC(=O)c1c(NC(=O)COC(=O)c2ccc(O)c(Cl)c2)sc2c1CCCC2	-9	3802	5	5.5	4	4	.
CCN(CCn1cccn1)C(=O)CC1C(=O)NCCN1Cc1cc(OC)cc(OC)c1 (stereo not drawn)	-5	2093	0	2.1	9	3	2
CC(C)Cc1nc2ccc(N)cc2[nH]1	31	4374	-6	3.8	8	-1	5
Fc1ccc(CSc2ncnc3c2ncn3C2CCCCO2)cc1 (stereo not drawn)	-42	4227	4	0.8	18	12	.
COC(=O)CC=N/N=C1/NC(=O)/C(=C/C(=O)O)S1	.	.	1	2.2	11	-3	.

Of the compounds above, two contain a thiophene ring, fused or not:
SMILES	PrP UTR inh	Autofluor counter	Sa ugtP lethal	RN4220 kill	Mtb hypoxia inh	Mtb hypoxia inh growth	BJeLR lethal
Cc1ccc(S(=O)(=O)N2CCN(S(=O)(=O)c3cccs3)CC2)cc1	-20	5305	1	0.6	0	3	0
NC(=O)c1c(NC(=O)COC(=O)c2ccc(O)c(Cl)c2)sc2c1CCCC2	-9	3802	5	5.5	4	4	.

(listing goes on)
SMILES	PrP UTR inh	Autofluor counter	Sa ugtP lethal	RN4220 kill	Mtb hypoxia inh	Mtb hypoxia inh growth	BJeLR lethal
CC1CC=CC2C1C(=O)N(Cc1ccccc1)C2c1ccc(C(F)(F)F)cc1 (stereo not drawn)	.	.	-13	8.3	4	1	.
CC(C)CCNC(=O)c1ccc2c(c1)N(C)C(=O)c1ccccc1S2	-14	3903	3	2.5	7	1	-5
CS(=O)(=O)NCCCNc1c(Cl)cccc1[N+](=O)[O-]	20	3959	7	6.7	12	4	13
Cc1cc(=O)[nH]c(NCc2ccc(Cl)cc2)n1	-11	4001	-5	1.9	0	4	5
Cc1cccc(C)c1NC(=O)CSc1nnnn1C	11	9167	2	0.6	-1	-1	-8
O=C(O)c1ccccc1S(=O)(=O)Cc1ccccc1	-2	5698	8	2.4	8	8	2
O=c1cc(-c2ccc(O)c(O)c2)oc2ccc3ccccc3c12	47	5608	-16	0.2	-7	-2	.
CC(C(=O)Nc1cccc(S(=O)(=O)N2CCOCC2)c1)N1C(=O)C2CC=CCC2C1=O (stereo not drawn)	.	.	-3	7.6	16	9	.
COc1ccc2sc(-c3ccc(N(C)C)cc3)c(C#CCCO)c2c1	-25	3851	0	-0.3	10	7	.
Cc1cc(=O)[nH]c(NN=Cc2ccco2)n1	.	.	3	2.1	-2	1	.
Cc1cc(-c2cc(N)n(-c3ccccc3)n2)c(C)n1C1CCCC1	-149	9707	-10	1.4	0	3	-5
O=C(Nc1ccnn1C1CCN(CCCC2CCCC2)CC1)c1ccccc1	0	6176	-1	1.8	0	5	-1
COC(=O)c1sc(C(F)(F)F)c(-c2ccccc2)c1S(=O)(=O)N(C)C	-11	4472	14	6.5	0	-3	-3
Cc1cc(C(=O)COC(=O)c2n[nH]c(=O)c3ccccc23)c(C)n1C(C)C	-41	2978	-2	-3.3	-6	-5	.
O=C(CSc1nc(=O)n(CCCN2CCOCC2)c2c1CCCC2)Nc1cccc(F)c1	-3	.	4	6.4	9	6	2
COc1ccc(Cc2nnc(SCC(=O)Nc3ccc(C)c(Cl)c3)[nH]c2=O)cc1	-14	4868	14	5.2	6	-4	7
